Bioassay records as filed in PubChem BioAssay.
Tg IFNy HTS: blocks Toxoplasma gondii growth in the presence of IFN-gamma | Toxoplasma gondii growth in IFN-gamma-treated host cells; active compounds read low; reference of the scale not given here | activity change, negative = inhibition, %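 (about 20 µM by stock and volumes)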 | 69,000 compounds, 3.8% hits;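 active means below -70%; inconclusive means fit judged invalid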;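 further: host cells are HeLa cells infected with Toxoplasma gondii; parasite growth read as luciferase light; one replicate is shown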
Numbers without * were called inactive; i = inactive; ? = inconclusive. A portion of the library; count on the stated rates, not on these rows.

SMILES	Tg IFNy HTS
COc1cccc(S(=O)(=O)Nc2ccc3c(c2)C(=O)N(C)[C@H]2CC[C@@H](CC(=O)NCC4CCCCC4)O[C@H]2CO3)c1	-54.8
Cn1cnc2c1C(COCC1CC1)CN(C(=O)c1cccs1)C2 (stereo not given)	78.2
CCNC(=O)[C@H]1CC[C@@](C)(C(=O)NCCCN2CCOCC2)C1(C)C	-26.6
CC[C@H]1C/C=C\C[C@@H](C(C)C)NC(=O)CCC(=O)N1	-15.8
Cc1nc(CNC(=O)CCn2c(=O)cc(C)c3ccccc32)no1	-0.8
CN1C(=O)C2(CCCN(C(=O)c3c[nH]c(=O)cn3)C2)c2ccccc21 (stereo not given)	-23.6
COc1cccc(S(=O)(=O)Nc2ccc3c(c2)C(=O)N(C)[C@@H]2CC[C@@H](CC(=O)NCC4CCCCC4)O[C@@H]2CO3)c1	-8.9
O=C(Cn1ncc2c(N3CCN(c4ccccc4)CC3)ncnc21)Nc1ccc(F)cc1F	125.3
COc1ccc(S(=O)(=O)NCc2cccnc2)cc1C	-13.0
C[C@@H](NC(=O)C[C@H]1C=C[C@H](NC(=O)c2cccnc2)[C@H](CO)O1)c1ccccc1	17.7
COCC#Cc1ccc2c(c1)O[C@H](CN(C)C(=O)C1CCOCC1)[C@H](C)CN([C@H](C)CO)S2(=O)=O	64.7
CC(C)COCc1cncc2c1CCN(C(=O)c1cscn1)C2	-6.9
CCc1oc2ccccc2c1-c1nccn1Cc1cnn(C)c1C	24.1
O=C(CC1C2CCCC1CN(CCO)C2)Nc1cccc(F)c1 (stereo not given)	-2.0
CC(CCn1cccn1)NCc1n[nH]c2c1CCCCC2 (stereo not given)	1.5
Cc1ccc(C)c(-c2nc(CN3CCc4c(sc5c4CCCC5)C3c3ccccc3)c(C)o2)c1 (stereo not given)	45.1
COc1cccc(CN2CCCC(c3nc(C)n4ccccc34)C2)c1 (stereo not given)	-49.9
Cc1nc2ccccn2c1-c1ccnc(SCC(=O)Nc2ccc(F)cc2)n1	-23.0
CN1CCN(C(=O)C[C@H]2CC[C@H]3[C@@H](COC[C@H](O)CN3C(=O)Nc3ccc4c(c3)OCO4)O2)CC1	63.0
Cc1cc(C)cc(NC(=O)CC(=O)NCc2ccccc2)c1	-85.5*
CCN(Cc1ncccc1C(=O)O)Cc1c(F)cccc1Cl	3.6
CCOC(=O)N1CCC2(CC1)OC(=O)C(C)=C2C(=O)NCCCN1CC(C)CC(C)C1 (stereo not given)	176.4
Cc1[nH]cnc1-c1nccn1Cc1ccccc1-n1ccnc1	-6.4
Cc1cc(C)nc(SCCS(=O)c2ccc(C(C)(C)C)cc2)n1 (stereo not given)	-55.9
COc1cc(NC(=O)Cn2c(=O)cc(C(=O)N3CCOCC3)c3ccccc32)cc(OC)c1	11.6
O=C(Sc1cccs1)c1csc(C2COc3ccccc3O2)n1 (stereo not given)	-96.7*
CO[C@H]1CN(C)C(=O)c2ccc(NC(=O)Nc3ccccc3)cc2OC[C@@H](C)N(C(=O)CC2CC2)C[C@H]1C	36.0
CCOC(=O)c1cc2c(c(-c3cccc(Br)c3)n1)[C@@H](CCO)N(C(=O)NC(C)C)C2	-28.1
CC(C)C1CN(C(=O)c2ccnc(N)c2)CCC(=O)N1CC1CC1 (stereo not given)	8.5
COc1ccc(C(=O)N(c2ccc(C)cc2)C2(C(=O)NCc3ccccc3)CCN(C(C)=O)CC2)cc1	-3.0
Cc1cccc(NC(=O)C(=O)NCCc2sc(-c3cccc(F)c3)nc2C)c1	-40.5
C[C@H]1CN([C@@H](C)CO)C(=O)c2ccccc2-c2ccccc2CO[C@@H]1CN(C)Cc1cccnc1	12.4
CC(=O)O[C@H]1C[C@@H](OC(C)=O)C(C)(C)C2CC(=O)[C@]3(C)C(CC[C@@]4(C)[C@H](C(=O)O)OC(=O)C5OC543)[C@]21C (stereo not given in full)	6.8
CCc1nc(NC(=O)NCc2cccc(SC)c2)nn1C	8.8
CO[C@@H](CN(C)C(=O)c1cc(Cl)cc(Cl)c1)[C@H](C)CN(C(=O)Nc1ccc(F)cc1)[C@@H](C)CO	16.7
O=C(Nc1ccc(C(F)(F)F)cc1)N[C@@H]1C=C[C@@H](CC(=O)N2CCCCC2)O[C@H]1CO	-28.6
Fc1ccccc1N1CCC2(CC1)CC(Oc1cccnc1)CO2 (stereo not given)	-0.2
CC1CCN(C(=O)CN(c2ccc(F)cc2)S(=O)(=O)c2ccc3c(c2)OCCO3)CC1	-24.4
O=C(CCn1cnnc1)N1C[C@@H]2[C@@H]3CC[C@@H](C3)[C@@H]2C1	7.2
CO[C@H]1CN(C)C(=O)c2ccc(NC(C)=O)cc2OC[C@H](C)N(Cc2cccc(F)c2)C[C@H]1C	39.3
O=C(Nc1cc(C(F)(F)F)ccc1N1CCc2ccccc2C1)c1ccccc1F	99.6
CCOC(=O)c1c(Sc2ccccc2)cnn1C(=O)Nc1cccc(Cl)c1	-78.9*
c1ccc(COc2ccc(-c3noc(-c4cnccn4)n3)cc2)cc1	99.0
O=C(NCCc1ccccc1)N1CCC2(CC1)Nc1cc(F)ccc1-n1cccc12	i
COc1ccc(-c2nc(C)c(CCNS(=O)(=O)c3ccccc3)s2)cc1OC	132.3
C[C@@H]1CN([C@H](C)CO)C(=O)c2cccc(N(C)C)c2O[C@H]1CN(C)Cc1ccncc1	-51.0
Cc1oc(-c2ccc(NC(=O)CC(C)(C)C)cc2)nc1Cn1cccn1	40.3
CCc1nc(CN2CCCC2c2nc3ccc(C)cc3[nH]2)no1 (stereo not given)	10.3
COc1ccccc1S(=O)(=O)N(C)C[C@H]1OCc2cn(nn2)CCCC(=O)N([C@H](C)CO)C[C@H]1C	22.0
COc1ccc(-c2nc(C)c(CCNS(=O)(=O)c3ccc(Br)cc3)s2)cc1	i
Carrying on:
SMILES	Tg IFNy HTS
CCN(CC)c1ncc2c(NCc3ccccc3)nc(SCc3ccccc3)nc2n1	-109.9*
Cc1nc(-c2cnn(C)c2)nc2c1CN(C(=O)c1ccc(N(C)C)cc1)CC2	-0.2
CCc1nc(OCC(=O)Nc2ccc(F)c(Cl)c2)c2ccccc2n1	-9.9
CC(=O)N1CC2(COC(C(=O)NCCc3cccnc3)C2)c2ccccc21 (stereo not given)	-1.7
O=C(C1CC1)N1CC[C@@H]2[C@@H](CO)Nc3ccc(Br)cc3[C@@H]21	19.8
CC(c1ccccc1)n1cnnc1Cc1cccnc1 (stereo not given)	-7.8
Cc1nc(CN(C)C(=O)Cc2cc3c(cc2Cl)OCCO3)no1	-1.2
CC(=O)c1cccn1S(=O)(=O)c1ccccc1	-29.5
Cc1nc2ccc(-c3cccc4ccccc34)cc2[nH]1	-53.6
Cc1cc(C)c(S(=O)(=O)NCCc2sc(-c3ccc(Cl)cc3)nc2C)cc1C	-55.5
O=c1c2cc3c(=O)n(CCO)c(=O)c3cc2c(=O)n1CCO	2.8
CO[C@H]1C=CO[C@@]2(C)Oc3c(C)c(O)c4c(O)c(c5c(c4c3C2=O)NC2(CCN(CC(C)C)CC2)N=5)=NC(=O)/C(C)=C\C=C/[C@H](C)[C@H](O)[C@@H](C)[C@@H](O)[C@@H](C)[C@H](OC(C)=O)[C@@H]1C	-65.2
O=C1NCC2(CCCN(C(=O)c3cc4c([nH]c3=O)CCCC4)CC2)O1 (stereo not given)	2.3
O=C1CC(c2ccc(C3=NN(c4ccccc4)C(=O)C3)cc2)=NN1c1ccccc1	21.2
CCCC#Cc1ccc([C@H]2[C@@H](CO)N[C@@H]2CN(C(C)=O)C2CCCC2)cc1	-36.4
Cc1nn(C)c(Cl)c1CN1CC[C@@H](c2ccc(F)cc2)[C@H](O)C1	-55.4
COc1ccc(C(=O)N2C[C@H]3[C@@H](c4ccccc42)[C@H](CO)N3C(=O)Cc2ccccn2)cc1	-11.2
COCC1CCC2(CCN(C(=O)c3ccnnc3)CC2)N1CC1CC1 (stereo not given)	-7.6
S=c1oc2ccc(Cl)cc2n1CN1CCCCC1	18.9
CCc1cnc(N2CC[C@@H]3CN(c4ccc(C)nn4)CCO[C@H]3C2)nc1	-2.6
CC(C)C(=O)c1cc2c(s1)CCN2S(C)(=O)=O	-84.6*
COc1cc(C(=O)NCCc2sc(-c3ccccc3)nc2C)cc(OC)c1OC	i
CCc1ccc(-c2cc(C(=O)N3CCNC(=O)C3CCO)[nH]n2)cc1 (stereo not given)	12.1
Cc1ccc(NC(=O)c2nnn(Cc3nc(-c4ccccc4)oc3C)c2C)c(C)c1	-37.8
O=C(C[C@H]1CC[C@H](NC(=O)c2ccc3c(c2)OCO3)[C@H](CO)O1)NCc1ccc(Oc2ccccc2)cc1	0.7
Cc1nccn1CCC1CCN(C(=O)CCC(=O)NC2CCCC2)CC1	?
COc1ccc(-c2nc(Nc3cccc(Cl)c3)c3ccccc3n2)cc1	-58.2
CCn1c(C)cc(C)c(C(=O)N2CCC(O)(c3ccc(C)cn3)CC2)c1=O	-2.7
CC(=O)N[C@H]1C[C@@H](c2ccc(S(C)(=O)=O)cc2)O[C@@H](C2CCCCC2)C1	-5.0
C[C@H](NC(=O)C[C@H]1C=C[C@@H](NC(=O)c2cccnc2)[C@H](CO)O1)c1ccccc1	-28.1
CC(c1n[nH]c(=O)[nH]1)n1ccnc1-c1ccnn1-c1ccccc1 (stereo not given)	2.7
CSc1ccc(-c2noc(-c3nnn(Cc4nc(-c5ccccc5)oc4C)c3C)n2)cc1	-31.6
CNCC(O)Cn1c2c(c3ccccc31)CCCC2 (stereo not given)	-17.3
CO[C@@H]1CN(C)C(=O)c2ccc(NC(=O)Nc3c(C)noc3C)cc2OC[C@@H](C)N(CCC(F)(F)F)C[C@H]1C	16.0
O=C(NCC1c2ccccc2CCN1C(=O)CN1CCOCC1)C1CCCCC1 (stereo not given)	-1.6
C[C@H](CO)N1C[C@H](C)[C@@H](CN(C)C(=O)c2ccc(N3CCN(C)CC3)cc2)OCc2cnnn2CCCC1=O	-17.4
Cn1ncc(CN2CCN(S(=O)(=O)c3ccccc3)CC2)c1C1CC1	-5.8
COc1ccc(S(=O)(=O)N2CCC(c3nc4ccc(-c5ccncc5)cn4n3)CC2)cc1	-58.3
CCc1nc(C)c(C(=O)NCc2ccc3c(c2)n(C)c(=O)n3C)o1	-4.5
COCC(=O)N1CCc2c(nnn2CC2CC2)C1COC (stereo not given)	-6.5
CCOC(=O)c1cnc2c(F)ccc(F)c2c1Sc1cccc(C(F)(F)F)c1	-28.9
CCc1nc(OCC(=O)Nc2ccccc2C(=O)OC)c2ccccc2n1	-3.8
COc1cccc(N(Cc2nc(-c3ccccc3)oc2C)S(=O)(=O)c2ccc(C)cc2)c1	-1.3
COC(=O)c1ccccc1SCc1ccccc1	1.8
COc1ccc2c(c1)NC1(CCN(S(=O)(=O)c3cccc(C#N)c3)CC1)c1cccn1-2	-21.9
COCC(=O)N1[C@@H](CO)[C@@H](c2ccc(-c3ccccc3OC)cc2)C12CN(C(C)=O)C2	77.7
CSc1cc(-c2ccc(Cl)cc2)[nH]c(=O)c1C#N	56.1
C/C=C/c1ccc([C@H]2[C@@H](CO)N3CCCCN(S(=O)(=O)c4ccc(OC)cc4)C[C@@H]23)cc1	-50.2
CC1CCCCN1C(=O)C(Cc1ccccc1)N1C(=O)C2CCCCC2C1=O (stereo not given)	5.1
COCCN(Cc1cccs1)C(=O)c1cnc2ccccc2c1	2.3
Further results
SMILES	Tg IFNy HTS
COc1ccc2[nH]c(C(=O)NCC3CC(C(C)C)=NO3)c(C)c2c1 (stereo not given)	11.9
Cc1ccc2c(c1)C(O)(c1c(C)[nH]c3ccccc13)C(=O)N2 (stereo not given)	7.3
O=S(=O)(c1ccc2c(c1)CCCC2)N1CCC2(CC1)NCCN=C2NCc1ccccc1F	-3.4
CO[C@H]1CN(C(=O)c2ccnnc2)[C@H]2COC[C@@H]12	3.4
Cc1ccc2c(c1)c(=O)cc(C(F)(F)F)n2C[C@@H](C)NC(=O)C1OCCc2ccccc21 (stereo not given in full)	-18.5
CCOc1ccc2nc(-c3c(-c4ccccc4)ncn3CCN)ccc2c1	13.8
COc1ccc2c(c1)NC1(CCN(C(=O)Nc3cccc(Cl)c3)CC1)c1cccn1-2	437.2
COc1ccc(CN(C)C[C@@H]2OCc3cnnn3CCCC(=O)N([C@H](C)CO)C[C@H]2C)cc1	-61.3
O=C(Nc1cccc2ccccc12)c1ccc(-n2cnnn2)cc1	15.3
CCOc1ccc(C2c3[nH]c4ccccc4c3CCN2C(=O)CCC2CCCC2)cc1 (stereo not given)	?
COC(=O)C(O)(NC(=O)COc1ccccc1)C(F)(F)F (stereo not given)	47.1
CC(C)NC(=O)NCC[C@@H]1CC[C@@H](NS(=O)(=O)c2ccc(Oc3ccccc3)cc2)[C@@H](CO)O1	-60.7
COC(=O)CCSCc1ccc(-c2onc(C)c2NC(=O)OC(C)c2ccccc2Cl)cc1 (stereo not given)	14.3
CCOCC1CN(C(=O)COc2ccc(C)cc2)Cc2ncn(C)c21 (stereo not given)	2.2
CC1CCCCN1S(=O)(=O)c1ccc2c(c1)CCC(=O)N2CC(=O)Nc1ccccc1 (stereo not given)	-22.8
Cc1ccc(C)c(-c2coc(-c3ccc(NC(=O)Nc4ccccc4)cc3)n2)c1	1.1
